NOMO-1 viab: STK33 inhibitor candidate reducing NOMO-1 cell viability; inhibition, % (concentration not given with the values); 7.5% of 37,000 active; NOMO-1 AML viability, CellTiter-Glo luminescence, 72 h; AID 2330;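 active means most replicates above 80%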;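 further: wells of about 30 µL received 25 nL stock; 0% = median of vehicle wells and 100% = reference inhibitor level; the first replicate is given; inactives centre near 10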
Numbers without * were called inactive. Some of the compounds tested. The share of hits here may be higher or lower than overall.

no.	canonical_smiles	NOMO-1 viab
1	Cc1noc(C)c1NC(=O)Nc1ccc2c(c1)C(=O)N([C@H](C)CO)C[C@H](C)[C@H](CN(C)C(=O)CCCN(C)C)OCCCC[C@@H](C)O2	26
2	C[C@@H]1CCCCO[C@@H](CN(C)C)[C@@H](C)CN([C@H](C)CO)C(=O)c2cc(NS(=O)(=O)c3ccccc3)ccc2O1	5
3	N#Cc1ccc(C2SCCCS2)cc1	0
4	C[C@H]1CN([C@@H](C)CO)C(=O)c2cc(NC(=O)CCC(F)(F)F)ccc2O[C@@H]1CN(C)Cc1ccccc1	16
5	CNC[C@H]1OCCCC[C@@H](C)Oc2ccc(NS(=O)(=O)c3cccs3)cc2C(=O)N([C@H](C)CO)C[C@@H]1C	4
6	CC(C)NC(=O)Nc1ccc2c(c1)CC(=O)N([C@@H](C)CO)C[C@H](C)[C@H](CN(C)S(=O)(=O)c1ccc(Cl)cc1)O2	25
7	Cc1ccc(NC(=O)CN2C(=O)/C(=C\c3ccccc3)SC2=S)cc1	-7
8	C[C@@H]1CN([C@H](C)CO)C(=O)c2cccc(NC(=O)Nc3ccc(C(F)(F)F)cc3)c2O[C@@H]1CN(C)C(=O)Nc1ccccc1	105*
9	C[C@H]1CN([C@@H](C)CO)C(=O)c2cc(NS(=O)(=O)c3ccc(Cl)cc3)ccc2O[C@@H]1CN(C)S(=O)(=O)c1ccc(Cl)cc1	36
10	C[C@H](CO)N1C[C@H](C)[C@H](CN(C)Cc2ccc(C(F)(F)F)cc2)Oc2ccc(NC(=O)C3CCCCC3)cc2CC1=O	36
11	O=C(NCc1ccccn1)C(=O)Nc1ccc(Cl)c(Cl)c1	2
12	C[C@@H]1CN([C@@H](C)CO)C(=O)Cc2cc(NC(=O)Nc3ccc(C(F)(F)F)cc3)ccc2O[C@@H]1CN(C)Cc1ccc(C(F)(F)F)cc1	124*

Retrieved one by one from the entries so far:
no.	canonical_smiles	NOMO-1 viab
8	C[C@@H]1CN([C@H](C)CO)C(=O)c2cccc(NC(=O)Nc3ccc(C(F)(F)F)cc3)c2O[C@@H]1CN(C)C(=O)Nc1ccccc1	105*
5	CNC[C@H]1OCCCC[C@@H](C)Oc2ccc(NS(=O)(=O)c3cccs3)cc2C(=O)N([C@H](C)CO)C[C@@H]1C	4
10	C[C@H](CO)N1C[C@H](C)[C@H](CN(C)Cc2ccc(C(F)(F)F)cc2)Oc2ccc(NC(=O)C3CCCCC3)cc2CC1=O	36
2	C[C@@H]1CCCCO[C@@H](CN(C)C)[C@@H](C)CN([C@H](C)CO)C(=O)c2cc(NS(=O)(=O)c3ccccc3)ccc2O1	5
1	Cc1noc(C)c1NC(=O)Nc1ccc2c(c1)C(=O)N([C@H](C)CO)C[C@H](C)[C@H](CN(C)C(=O)CCCN(C)C)OCCCC[C@@H](C)O2	26
4	C[C@H]1CN([C@@H](C)CO)C(=O)c2cc(NC(=O)CCC(F)(F)F)ccc2O[C@@H]1CN(C)Cc1ccccc1	16

(more compounds)
no.	canonical_smiles	NOMO-1 viab
13	O=C(O)c1cc([N+](=O)[O-])ccc1NCCCc1ccccc1	-6
14	C[C@@H]1CN([C@@H](C)CO)C(=O)c2cccc(NC(=O)NC3CCCCC3)c2O[C@@H]1CN(C)C(=O)Nc1ccccc1	44
15	C[C@@H]1CN([C@@H](C)CO)C(=O)c2cc(NS(=O)(=O)c3cccs3)ccc2O[C@H]1CN(C)Cc1ccccc1	-13
16	C[C@H]1CN([C@@H](C)CO)C(=O)c2cccc(NC(=O)Nc3ccc(C(F)(F)F)cc3)c2O[C@@H]1CN(C)C	40
17	Cc1ccc(-c2nc3ccccc3o2)cc1NC(=O)C(C)(C)Oc1ccc(Cl)cc1	44
18	CC(C(=O)Nc1cc(Cl)ccc1Oc1ccccc1)N(c1ccccc1)S(C)(=O)=O (configuration not stated)	46
19	COc1ccc(-c2c(C#N)c(SCC(N)=O)nc(C)c2C(=O)Nc2ccccc2)cc1	30
20	COc1ccc(-c2nc(SCc3ccc(OC)c([N+](=O)[O-])c3)n[nH]2)cc1	2
21	C[C@@H]1CN([C@H](C)CO)C(=O)c2cccc(NC(=O)NC3CCCCC3)c2O[C@H]1CN(C)S(=O)(=O)c1cccs1	-8
22	Cc1cccc(Cc2c(C)c3c(C)[nH]nc3oc2=O)c1	54
23	C[C@H](CO)N1C[C@H](C)[C@H](CN(C)Cc2ccc(-c3ccccc3)cc2)Oc2c(NS(=O)(=O)c3ccc(Cl)cc3)cccc2C1=O	-1
24	O=C(Cn1ccc([N+](=O)[O-])n1)Nc1ccc(F)c(Cl)c1	2
25	C[C@@H]1CN([C@@H](C)CO)C(=O)c2cccc(NC(=O)Nc3ccccc3)c2O[C@@H]1CN(C)Cc1ccc(C(=O)Nc2ccccc2N)cc1	140*
26	CCOc1ccccc1Nc1nc(Nc2ccccc2OCC)nc(Sc2nnc(C)s2)n1	47
27	C[C@H]1CN([C@@H](C)CO)C(=O)Cc2cc(NC(=O)CCN3CCOCC3)ccc2O[C@@H]1CN(C)S(=O)(=O)c1ccc(F)cc1	15
28	Cc1cc(C)cc(NC(=O)CN(c2ccc(Cl)cc2Cl)S(C)(=O)=O)c1	-1
29	C[C@H](CO)N1C[C@H](C)[C@@H](CN(C)C(=O)Nc2cccc3ccccc23)Oc2c(NC(=O)c3ccc(-c4nccs4)cc3)cccc2C1=O	46
30	COC(=O)c1c(NC(=S)Nc2cccc(NC(C)=O)c2)sc(C(=O)N(C)C)c1C	15
31	CC(=O)Nc1ccc(C(=O)CSc2nc(C)cc(=O)[nH]2)cc1	24
32	C[C@H](CO)N1C[C@H](C)[C@@H](CN(C)C(=O)Nc2ccccc2)Oc2c(NC(=O)C3CCCCC3)cccc2C1=O	13
33	Cc1ccc(NC(=O)CCCN2C(=O)c3ccccc3C2=O)c([N+](=O)[O-])c1	-1
34	C[C@@H]1CCCCO[C@H](CN(C)Cc2ccc3c(c2)OCO3)[C@@H](C)CN([C@H](C)CO)C(=O)c2cc(NS(=O)(=O)c3ccc(F)cc3)ccc2O1	55
35	C[C@@H]1CN([C@H](C)CO)C(=O)c2cccc(NS(=O)(=O)c3ccc(F)cc3)c2O[C@H]1CN(C)Cc1ccc(C(=O)Nc2ccccc2N)cc1	57
36	C[C@@H]1CCCCO[C@H](CN(C)C(=O)Nc2ccc(C(F)(F)F)cc2)[C@@H](C)CN([C@H](C)CO)C(=O)c2cc(NC(=O)Nc3ccccc3)ccc2O1	49
37	C[C@@H]1CN([C@@H](C)CO)C(=O)c2cccc(NS(=O)(=O)c3ccc(F)cc3)c2O[C@H]1CN(C)Cc1ccc(C(F)(F)F)cc1	10
38	CC(C)N(Cc1nc(-c2ccccc2)no1)S(=O)(=O)c1ccc(Br)cc1	7
39	C[C@H]1CN([C@@H](C)CO)C(=O)c2cccc(NC(=O)c3ccc(-c4nccs4)cc3)c2O[C@H]1CN(C)S(=O)(=O)c1cccs1	15
40	COc1ccc(NC(=O)COc2ccc(Cl)c(C)c2)c([N+](=O)[O-])c1	3
41	Cc1noc(C)c1NC(=O)N(C)C[C@@H]1Oc2ccc(NC(=O)Cn3cnnn3)cc2CC(=O)N([C@@H](C)CO)C[C@@H]1C	8
42	CC1=C(C(=O)Nc2ccccc2C)C(c2cccc(F)c2)n2nc(CCCO)nc2N1 (configuration not stated)	-2
43	O=C(COc1cccc(NC(=O)c2ccc(Br)cc2)c1)c1ccc(F)cc1	-8
44	CC(C)NC(=O)Nc1cccc2c1O[C@H](CN(C)Cc1ccc3c(c1)OCO3)[C@H](C)CN([C@@H](C)CO)C2=O	-3
45	C[C@@H]1CN([C@@H](C)CO)C(=O)Cc2cc(NC(=O)c3ccncc3)ccc2O[C@@H]1CN(C)S(C)(=O)=O	16
46	Cc1nnc(SCC(=O)Nc2ccc(Br)cc2F)s1	42
47	C[C@@H]1CN([C@@H](C)CO)C(=O)c2cc(NS(C)(=O)=O)ccc2O[C@H]1CN(C)S(=O)(=O)c1cn(C)cn1	9
48	C[C@H](CO)N1C[C@H](C)[C@H](CN(C)S(=O)(=O)c2cccs2)Oc2ccc(NS(=O)(=O)c3ccc(F)cc3)cc2C1=O	12

Grouped by structure, those above containing a cyano group (2)
no.	canonical_smiles	NOMO-1 viab
3	N#Cc1ccc(C2SCCCS2)cc1	0
19	COc1ccc(-c2c(C#N)c(SCC(N)=O)nc(C)c2C(=O)Nc2ccccc2)cc1	30

Following part.
no.	canonical_smiles	NOMO-1 viab
49	CC(CNc1ccccc1)C(=Nc1ccccc1)Nc1ccccc1 (configuration not stated)	119*
50	C[C@H]1CN([C@@H](C)CO)C(=O)c2cccc(NC(=O)c3nc4ccccc4s3)c2O[C@@H]1CN(C)S(=O)(=O)c1cccs1	11
51	O=C(Nc1cccc(OCC(=O)N2CCOCC2)c1)C1CCCCC1	8
52	Cc1noc(C)c1NC(=O)N(C)C[C@@H]1Oc2ccc(NC(=O)CCN3CCOCC3)cc2C(=O)N([C@@H](C)CO)C[C@H]1C	15
53	C[C@H]1CN([C@@H](C)CO)C(=O)c2cc(NC(=O)C3CC3)ccc2O[C@@H]1CN(C)C(=O)NC1CCCCC1	0
54	C[C@@H]1CN([C@@H](C)CO)C(=O)c2cc(NC(=O)Nc3ccc4c(c3)OCO4)ccc2O[C@@H]1CN(C)Cc1ccncc1	-9
55	Cc1noc(C)c1S(=O)(=O)Nc1ccc2c(c1)CC(=O)N([C@H](C)CO)C[C@H](C)[C@H](CN(C)CC1CCCCC1)O2	-9
56	COc1ccc(Br)cc1CNCCN1CCOCC1	6
57	CC(C)NC(=O)Nc1cccc2c1O[C@H](CN(C)S(=O)(=O)c1ccc(Cl)cc1)[C@H](C)CN([C@H](C)CO)C2=O	4
58	C[C@H]1CN([C@@H](C)CO)C(=O)c2cccc(NC(=O)Nc3ccc(C(F)(F)F)cc3)c2O[C@@H]1CN(C)Cc1ccc(Oc2ccccc2)cc1	89*
59	COC(=O)c1cc(NC(=O)CN(c2ccccc2F)S(C)(=O)=O)ccc1Cl	12
60	Cc1ccsc1C1C(C(=O)c2ccco2)C(=O)C(=O)N1Cc1ccco1 (configuration not stated)	28

Assay outcomes (PubChem BioAssay)
